# Vaccinia mCherry: vaccinia inhibition (mCherry reporter). AID 720579. Vaccinia virus mCherry reporter infection, fluorescence; about a quarter of the inactives have no number. Potency, µM (series often up to 36.5 µM), for inactives: at the highest dose activity change, negative = inhibition, hits mostly inhibitors. 310,000 compounds, 0.63% hits; active = well fitted inhibition curve with a large enough effect; inconclusive = small, poorly fitted or top-dose-only effect; inactive = no such curve, though single readings can be large or run the other way; tested in A549 cells; also: nearly all actives have a fitted effect of over 35% in size; inactives centre near -10
# VACV Venus inh: inhibitors of vaccinia virus (Venus reporter). Vaccinia virus Venus reporter expression, fluorescence. Potency, µM (titrated, usually from 36.5 µM), for inactives: at the highest dose activity change, negative = inhibition, hits mostly inhibitors. 330,000 compounds, 0.46% hits; active means well fitted inhibition curve with a large enough effect; inconclusive means small, poorly fitted or top-dose-only effect; inactive means no such curve, though single readings can be large or run the other way; tested in A549 cells; also: nearly all actives have a fitted effect of over 30% in size; inactives centre near -10
# An asterisk follows results filed as active; i = inactive; ? = inconclusive; . = not tested or not shown; [ ] = dose if it differs, or a comment. % is scaled to controls: 0 for no effect and ±100 for the full control effect; potency is read from the fitted curve at half-maximal effect. This is a random part of the collection; 0.87% or so of the library scored in one or more.
Compound	Vaccinia mCherry	VACV Venus inh
COc1cccc(C(=O)N(c2ccc(OC)cc2OC)C2C=CS(=O)(=O)C2)c1 (stereo unspecified)	?	-6%
CO/N=C(/CN1CCCCC1)c1ccc(Cl)cc1	i	-8%
Cc1ccccc1-c1noc(-c2cc3ccccc3oc2=O)n1	-12%	-3%
CC(Oc1ccccc1Cl)C(=O)N1CCCN(C)CC1 (stereo unspecified)	-25%	-18%
Cc1ccc2nc(NC(=O)COC(=O)c3ccccn3)sc2c1	0%	2%
COc1ccc(CCNC(=O)c2cc(=O)c3cc(C)cc(C)c3o2)cc1OC	16%	2%
CCCCC[C@H]1CN(C2CCCCC2)C(=O)[C@@H]1CC(=O)NCc1ccc(OC)cc1	-13%	?
CC(NC(=O)OC(C)(C)C)C(=O)Oc1cc2oc(=O)cc(-c3ccccc3)c2cc1Cl (stereo unspecified)	-8%	-5%
O=C(CCN1C(=O)/C(=C/c2cccs2)SC1=S)Nc1ccc(C(=O)O)cc1	i	7%
COc1ccccc1CCC(=O)NNC(=O)c1ccncc1	-14%	-6%
CC(C)(C)S(=O)(=O)Cc1nc(-c2ccc(Cl)c(Cl)c2)cs1	-13%[7.34 µM]	-7%[7.34 µM]
COc1ccc(N2CCN(S(=O)(=O)c3cc(Br)cc4c3N(C(=O)C3CC3)CC4)CC2)cc1	-6%	-8%
CC1CCN(S(=O)(=O)c2ccc3c(c2)N(CC(=O)NC(C)(C)C)C(=O)CS3)CC1	-20%	-13%
O=C(CSc1cccc[n+]1[O-])c1ccc(Cl)s1	i	-10%
Cc1csc(C(C)N(C)C(=O)c2cc(NC(=O)C3CCC3)c3c(c2)nc(-c2ccncc2)n3C)n1 (stereo unspecified)	i	-11%
COc1ccccc1CCNC(=O)c1cnn2c(C(F)F)cc(C)nc12	-2%	-7%
COc1ccc(N(CC(=O)NCCSc2ccccn2)S(=O)(=O)c2ccc(C)cc2)cc1OC	-12%	-11%
Cn1cccc1CC(=O)NNC(=O)Nc1ccc(Cl)cc1	i	19%
CCCCOP(=O)(c1ccc(N(C)C)cc1)C(O)c1cc(OC)ccc1OC (stereo unspecified)	-18%	-26%
COC(=O)CN1C(=O)[C@H]2[C@@H](c3ccc(C)o3)N3C(=O)CN(CC4CC4)C(=O)[C@@]3(C)[C@H]2C1=O	i	-6%
Cn1c(NC(=O)c2cccc(C(F)(F)F)c2)cc(=O)n(C)c1=O	-16%	-7%
O=C(O)CCC(=O)Nc1ccc(/C=C/C(=O)C2CC2)cc1	12%	2%
Cc1cc(S(=O)(=O)NCc2ccccc2)ccc1OCC(=O)Nc1cccc([N+](=O)[O-])c1	?	?
O=C(COc1ccc(S(=O)(=O)N2CCCC2)cc1)NCc1cccnc1	i	-1%
Cc1coc2c(C)c3oc(=O)c(CCC(=O)NCCCn4ccnc4)c(C)c3cc12	-12%	1%
O=C(COC(=O)CCN1C(=O)c2cccc([N+](=O)[O-])c2C1=O)NC1CCS(=O)(=O)C1 (stereo unspecified)	-10%	-11%
COc1ccc(-c2c(C#N)c(N)n(N)c(=O)c2C#N)cc1Cl	-4%	-11%
Nc1nc(SCc2ccccc2)cc(SCc2ccccc2)n1	?	-29%
O=C(NCc1ccco1)C12CN(Cc3ccccc3)CC1C(c1cccc([N+](=O)[O-])c1)=NO2 (stereo unspecified)	-26%	-28%
COc1cccc(-n2cnc3sc(C)c(C)c3c2=O)c1	i	-18%

# Remaining list, next part.
Compound	Vaccinia mCherry	VACV Venus inh
CCN1C[C@]2(COC)CC[C@H](OC)[C@@]34C5C[C@H]6C(=O)C5[C@](O)(C[C@H]6OC)[C@@](O)(C(OC)C23)[C@@H]14 (stereo partly specified)	-6%	-8%
Cc1ccc(N2CC(=O)Nc3c(oc4nc(-c5ccccc5)cc(C)c34)C2=O)cc1	i	-10%
CCCOC(=O)c1ccc(Cn2nnc3sc4c(c3c2=O)CCC(C)C4)cc1 (stereo unspecified)	-1%	12%
CCOC(=O)C1=C(C)Nc2nc(SCc3cccnc3)nn2C1c1ccc(OC)cc1 (stereo unspecified)	-10%	-12%
Cn1ncc([N+](=O)[O-])c1C(=O)Nc1ccccc1C#N	-9%	-9%
Cn1c(=O)c2c(SCC(=O)Nc3cccc(F)c3)nc(-c3ccco3)nc2n(C)c1=O	i	-4%
CC(CCc1ccccc1)NC(=O)CN1CCOc2ccccc21 (stereo unspecified)	-5%	2%
CCCOc1ccc(F)cc1-c1cc(C(=O)NC(C)C)[nH]n1	0%	-20%
CCCc1nc2ccc(Br)cn2c1Cc1cccc(Cl)c1	i	-10%
CN(C)CCNc1ccc(Cl)cc1[N+](=O)[O-]	i	-12%
N=C1C(c2ccccc2)=C(O)CN1c1cccc(S(N)(=O)=O)c1	i	-7%
O=C(CCc1nc(-c2ccccc2F)no1)Nc1ccc(Oc2ccccc2)cc1	.	?
COc1ccc(C2=NCC(CSc3nnnn3C)S2)cc1 (stereo unspecified)	-29%	?
CC1C(=O)CC(c2ccc([N+](=O)[O-])cc2)NC1c1ccc([N+](=O)[O-])cc1 (stereo unspecified)	-14%	-17%
N#Cc1c(F)cccc1NCc1cccnc1	-21%	-12%
CC(=O)N(c1ccccc1)C(C)c1nc(C#N)c(C#N)nc1C (stereo unspecified)	-9%	-5%
CCC1SC(CC)C(=O)N(CC(=O)NC2CCCCC2)C1=O (stereo unspecified)	0%	-7%
CC(C)OCCc1cccc[n+]1[O-]	1%	1%
O=C(N/N=C/c1ccc(OC(F)F)cc1)c1cccc(S(=O)(=O)N2CCOCC2)c1	0%	0%
Cc1ccc(N2C(=O)C(CN3CCOCC3)C2c2ccccc2)cc1 (stereo unspecified)	-4%	-17%
Cc1oc(-c2ccccc2Cl)nc1CSc1nc2c(c(=O)[nH]1)CCC2	-7%	-18%
O=C(CC(NC(=O)c1ccccc1)c1ccccc1)NCc1ccccc1 (stereo unspecified)	i	-11%
COc1ccc(NC(=O)C2CCCN(S(=O)(=O)c3cccs3)C2)cc1OC (stereo unspecified)	-23%	-7%
CCn1c(=O)cc(C(F)(F)F)[nH]c1=S	i	2%
Cc1ccc(-n2nnc(-c3nc(-c4cccs4)no3)c2N)cc1C	-5%[7.34 µM]	-8%[7.34 µM]
Cc1ccc(NC(=O)C(=O)Nc2ccc(C)cn2)nc1	-9%	-13%
O=c1[nH]nc(SCc2nnc(-c3ccc([N+](=O)[O-])cc3)o2)n1C1CCCCC1	-15%	-12%
CCN1CCN(C(=O)CCCn2c(C)c3cnn(-c4ccccc4)c(=O)c3c2C)CC1	-6%	-12%
Cc1ccccc1C(=O)NC(=S)NCCC1=CCCCC1	-2%	-4%
Cc1c(C(=O)NCc2ccccc2Br)oc2c1-c1[nH]ncc1CC2	-7%	-9%

# Fetched by compound from the list above:
Compound	Vaccinia mCherry	VACV Venus inh
Cc1ccc(N2C(=O)C(CN3CCOCC3)C2c2ccccc2)cc1 (stereo unspecified)	-4%	-17%
COc1cccc(-n2cnc3sc(C)c(C)c3c2=O)c1	i	-18%
O=C(O)CCC(=O)Nc1ccc(/C=C/C(=O)C2CC2)cc1	12%	2%
COc1ccc(C2=NCC(CSc3nnnn3C)S2)cc1 (stereo unspecified)	-29%	?
Cc1oc(-c2ccccc2Cl)nc1CSc1nc2c(c(=O)[nH]1)CCC2	-7%	-18%
CCN1CCN(C(=O)CCCn2c(C)c3cnn(-c4ccccc4)c(=O)c3c2C)CC1	-6%	-12%
CC(Oc1ccccc1Cl)C(=O)N1CCCN(C)CC1 (stereo unspecified)	-25%	-18%

# Next section:
Compound	Vaccinia mCherry	VACV Venus inh
O=C1CCCCC(=O)c2ccccc2N1	-22%	-12%
O=C1OCC2=C1C(c1ccc3c(c1)OCO3)c1cc3c(cc1O2)OCO3 (stereo unspecified)	-4%	-27%
O=C(CN(Cc1ccco1)S(=O)(=O)c1cccs1)Nc1ccccc1C(F)(F)F	.	0%
Cc1ccc(N(CC(O)CN2CCCCC2)S(=O)(=O)c2ccccc2[N+](=O)[O-])cc1 (stereo unspecified)	-12%	5%
CCCCCC1CC(CC/C(C)=N/NC(N)=O)C(=O)O1 (stereo unspecified)	-17%	-17%
Cc1ccc(-c2nc(N)sc2CC(=O)OCC(=O)NCC2CCCO2)cc1 (stereo unspecified)	-15%	-7%
CC1=C(C(=O)OC(C)C)C(c2cccs2)C(C(=O)OC(C)C)=C(C)N1	-22%	-22%
Cc1cc(C(=O)COC(=O)c2ccc[nH]c2=O)c(C)n1CCc1ccc(F)cc1	-4%	2%
CSCCCNC(=S)N1CCN(S(=O)(=O)c2cccc(C(F)(F)F)c2)CC1	-3%	-15%
O=C(Nc1nnc(S(=O)(=O)N2CCOCC2)s1)c1ccc(Cl)cc1	?	-5%
COc1ccc(N2CCN(C(=O)COC(=O)CNC(=O)c3ccccc3)CC2)cc1	-13%	2%
Cc1ccc(-n2c(SCC(=O)NCc3cccs3)nnc2-c2ccoc2C)cc1	?	-11%
CN1CCN(c2oc(/C=C/c3ccc(F)cc3)nc2C#N)CC1	-24%	-14%
CC1CC(C)CN(C(=O)c2cc(-c3ccccn3)nc3ccccc23)C1 (stereo unspecified)	-13%	-7%
COc1ccc(N=Nc2ccc(N)nc2N)cc1	?	-12%
CC(C)C[C@H](NC(=O)Nc1ccccc1F)C(=O)O	.	4%
C[C@@H]1C(c2cccc(Cl)c2)=NN(c2ccccc2)[C@H]1C(=O)N1CCOC1=O	?	?
O=C1c2ccccc2C(=O)N1CC(=O)N1c2ccccc2Sc2ccccc21	-9%	-6%
Cc1ccc(C)c(S(=O)(=O)NC2CCSC2=O)c1 (stereo unspecified)	-26%	-5%
Cc1ccc(C)c(S(=O)(=O)N2CCN(C(=O)Cn3c(C(F)(F)F)nc4ccccc43)CC2)c1	.	-27%
Nc1cc(S(=O)(=O)O)cc2ccc(S(=O)(=O)O)cc12	-6%	9%
CC1(C)CC(NC(=O)CC2CCCCC2)CC(C)(C)N1	.	-2%
Cc1cccc(-n2c(=O)c3c4c(sc3n3cnnc23)CCCC4)c1	-21%	2%
O=C(NCc1ccc2c(c1)OCO2)c1ccc(N2C(=O)C3CCCCC3C2=O)cc1 (stereo unspecified)	.	-13%
O=C(NC(=S)NCCc1ccccn1)c1ccco1	-14%	-15%
CC1(C(=O)NS(=O)(=O)c2ccc(Cl)cc2)CCN1C(=O)c1ccc(C2CCCCC2)cc1 (stereo unspecified)	i	-8%
Cn1cc(S(=O)(=O)c2ccc(Cl)cc2)c(=O)c2cc(F)c(N3CCCCCC3)cc21	-23%	-18%
CC(=O)N(c1ccccc1Cl)S(=O)(=O)c1ccc(Cl)cc1	?	-15%
COc1ccc(C(CCN2CCOCC2)c2c(OC)cc(OC)c3ccc(=O)oc23)cc1 (stereo unspecified)	-21%	-10%
Cc1ccccc1OCC(=O)OCC(=O)N1CCCc2ccccc21	-8%	-4%

# New compounds follow:
Compound	Vaccinia mCherry	VACV Venus inh
COc1ccc(N2C(=O)/C(=C/c3ccc([N+](=O)[O-])cc3)C=C2c2ccccc2)cc1	i	4%
COC(=O)c1ccc(Cn2c(SCc3ccc(F)cc3)nc3ccncc32)cc1	5%	-10%
COc1ccc(NC(=O)CNC(c2ccccc2)c2ccccc2)cc1Cl	?	0%
O=c1[nH]cnc2c1ncn2C1CCC(CO)O1 (stereo unspecified)	40%[activator]	6%
CCN(CC)S(=O)(=O)c1ccc(O)c(C(=O)OCC(=O)Nc2cc(C)c(C)cc2[N+](=O)[O-])c1	i	-14%
Cc1ccc2c(c1)N(CC(=O)NC(C)CCc1ccccc1)C(=O)c1cccnc1O2 (stereo unspecified)	7%	-2%
Cc1cc2ccccc2n1CCNC(=O)c1ccccc1F	3%	0%
COCCCN(Cc1ccco1)C(=O)Cn1ncc2c(=O)oc3ccc(C)cc3c21	-6%	-5%
O=C(NCc1cccnc1)C(=O)NCC1OCCN1S(=O)(=O)c1ccccc1 (stereo unspecified)	i	-17%
Cc1nc(N)[nH]c(=O)c1CCCNS(=O)(=O)c1ccc([N+](=O)[O-])cc1	i	-8%
Cc1ccc(C)c(N2CCN(C(=O)CCCN3C(=S)NC(C)(C)CC3C)CC2)c1 (stereo unspecified)	-9%	-27%
CC1CCCCN1c1nc(-c2ccncc2)nc2ccccc12 (stereo unspecified)	-5%	-18%
CCCOC(=O)/C(=C\C=C\c1ccccc1)NC(=O)c1ccccc1	-20%	-17%
Cc1ccc(S(=O)(=O)N/N=C\c2ccc3c(c2)OCO3)cc1	-15%	-13%
O=C(CN1CCN(CC(=O)Nc2ccccc2Cc2ccccc2)CC1)Nc1ccccc1Cl	-14%	-7%
Cc1cccc(C2c3[nH]c4ccccc4c3CCN2C(=O)c2ocnc2C)n1 (stereo unspecified)	-9%	-2%
CC1(C)C(=O)Nc2ccccc2N1C(=O)COC(=O)COc1cccc(C(F)(F)F)c1	-7%	-15%
Cc1ccc(SCc2nc(-c3ccc(C(=O)NCCc4ccc(Cl)cc4)cc3)oc2C)cc1	?	?
O=C(CCC1CCCN(Cc2ccncc2)C1)NCc1ccc(F)c(F)c1 (stereo unspecified)	-7%	-4%

# From PubChem BioAssay
